Compound activity deposited in PubChem BioAssay by Broad Institute.
DUX4 txn inh – DUX4-mediated transcription inhibition; 293T-iDUX4 ZSCAN4-Gaussia luciferase reporter, 24 h; active compounds read low; activity change, negative = inhibition, % (no concentration beside the values); hit rate 0.8% among 37,000; AID 1224904;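 active means -10% or lower and over 25 points stronger than a control reporter; inconclusive means -10% or lower with a smaller gap; inactive means above -10%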;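 further: 0% = median of neutral control wells and -100% = median of positive control wells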
DUX4 txn inh difference – further read-out of DUX4 txn inh, marked with its call; Gaussia minus Italica difference, %; measured here: selective DUX4 reporter inhibition;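 worked out from the two reporters; negative = selective loss of the DUX4 reporter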
DUX4 txn inh control – recorded beside DUX4 txn inh, whose call it bears; activity change, negative = inhibition, %; measured here: Italica tet-on control reporter;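 0 = neutral control and -100 = positive control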
The depositor's hits bear a star; ? = inconclusive; . = not tested or not shown; & = joins results of further samples. This is a subset; count on the stated rates, not on these rows.

SMILES | DUX4 txn inh | DUX4 txn inh difference | DUX4 txn inh control
CO[C@@H](CN(C)C(=O)c1ccccc1F)[C@@H](C)CN([C@H](C)CO)S(=O)(=O)c1ccc(Cl)cc1 | 2 | 2 | 0.6
O=C(c1ccc(F)cc1)N1CCCCN2[C@@H](CO)[C@@H](c3ccc(-c4ccccc4)cc3)[C@@H]2C1 | -7 | 3 | -9.6
C[C@H](CO)N1C[C@H](C)[C@@H](CN(C)Cc2ccc(C(=O)O)cc2)OCc2cnnn2CCCC1=O | 7 | 2 | 5.0
O=S(=O)(NCC[C@@H]1CC[C@@H](NS(=O)(=O)c2cccc(Cl)c2)[C@@H](CO)O1)c1cccc(F)c1 | 6 | 4 | 2.2
CCC(=O)N1C[C@H](C)[C@H](OC)CN(C)C(=O)c2cc(NC(=O)c3cc(C)on3)ccc2OC[C@H]1C | -3 | -7 | 4.2
C[C@@H]1CCCCO[C@H](CN(C)Cc2ccc(C(=O)O)cc2)[C@H](C)CN([C@@H](C)CO)C(=O)c2cc(NC(=O)NC3CCCCC3)ccc2O1 | -2 | -2 | -0.2
O=C(C1CCOCC1)N1CC(=O)N2[C@H](CO)[C@H](c3ccc(C#CC4CCCCC4)cc3)[C@@H]2C1 | 9 | 12 | -2.6
COc1ccc2c3c(n(C)c2c1)[C@H](CO)N(S(C)(=O)=O)CC31CN(CC2CCOCC2)C1 | 10 | 3 | 7.7
COc1ccc2c3c([nH]c2c1)[C@@H](CO)N(S(C)(=O)=O)CC31CCN(C(=O)Nc2ccccc2)CC1 | 10 | 4 | 6.2
CO[C@H](CN(C)C(=O)C1CCOCC1)[C@H](C)CN(C(=O)Nc1ccc(C(F)(F)F)cc1)[C@@H](C)CO | 4 | 4 | 0.0
CC=Cc1ccc2n(c1=O)C[C@@H]1[C@@H](CO)[C@H](C(=O)NCCc3ccncc3)[C@H]2N1Cc1ccncc1 (mixture of isomers) | 5 | 4 | 0.8
CO[C@@H]1CN(C)C(=O)c2ccc(NC(=O)c3ccccc3)cc2OC[C@@H](C)N(C(=O)C2CC2)C[C@H]1C | 1 | -2 | 2.7
O=C(NCc1ccccc1Cl)[C@@H]1[C@@H](CO)[C@@H]2Cn3c(cccc3=O)[C@@H]2N1C(=O)C1CCC1 | 4 | 3 | 1.2
CN1C(=O)c2cc(NC(=O)C3CC3)ccc2OC[C@@H]2O[C@@H](CC(=O)NCCN3CCCC3)CC[C@@H]21 | 3 | -5 | 7.7
Cc1noc(C)c1NC(=O)N(C)C[C@@H]1OCCCC[C@H](C)Oc2ccc(NC(=O)Nc3cccc4ccccc34)cc2C(=O)N([C@@H](C)CO)C[C@H]1C | 1 | -3 | 3.8
CCCNC(=O)[C@@H]1[C@@H](CO)[C@@H]2Cn3c(ccc(C4=CCCC4)c3=O)[C@H]1N2C(=O)C1CC1 | -4 | -5 | 1.5
O=C(C[C@@H]1CC[C@H]2NC[C@H](O)COC[C@@H]2O1)Nc1ccc(-c2ccccc2)cc1 | 0 | 12 | -11
O=C(N[C@@H]1CC[C@H](CCn2cc(C3CC3)nn2)O[C@H]1CO)c1cccnc1 | -3 | -4 | 1.1
Cc1noc(C)c1S(=O)(=O)Nc1ccc2c(c1)C(=O)N([C@H](C)CO)C[C@@H](C)[C@H](CN(C)S(=O)(=O)c1ccc(F)cc1)OCCCC[C@@H](C)O2 | 3 | 4 | -1.2
CNC(=O)C[C@H]1CC[C@@H]2[C@@H](COc3ccc(NC(=O)Nc4cccc(C)c4)cc3C(=O)N2C)O1 | 2 | 1 | 1.4
O=C(c1ccccn1)N1CC(=O)N2[C@H](CO)[C@H](c3ccc(C#CC4CCCC4)cc3)[C@H]2C1 | -5 | -5 | -0.4
O=S(=O)(c1cccc(Cl)c1)N1[C@@H]2CNC[C@H]1C2c1ccc(-c2cccnc2)cc1 (stereo partly drawn) | 26&6 | 30&-4 | -3.4&10.0
CC(C)NC(=O)N(C)C[C@@H]1Oc2ccc(NC(=O)c3ccncc3)cc2C(=O)N([C@@H](C)CO)C[C@H]1C | 3 | 1 | 1.9
CCCNC(=O)N1C[C@H]2[C@@H](c3ccccc31)[C@H](CO)N2Cc1ccccc1F | -5 | -4 | -1.9
N#C[C@H]1[C@@H](c2ccccc2-c2ccccc2F)[C@@H](CO)N1C(=O)C1CCOCC1 | 16 | 1 | 15
COc1ccc2c3c([nH]c2c1)[C@H](CO)N(C(=O)CN(C)C)CC31CCN(Cc2ccccc2)CC1 | ? | . | .
COCC(=O)N1CC(=O)N2[C@H](CO)[C@H](c3ccc(-c4ccccc4F)cc3)[C@@H]2C1 | 6 | 5 | 1.5
CCCNC(=O)N1CCC2(CC1)CN(S(C)(=O)=O)[C@H](CO)c1c2c2ccc(OC)cc2n1C | 10 | 10 | -0.7
O=S(=O)(Cc1ccccc1)NCC[C@H]1CC[C@@H](NS(=O)(=O)c2ccc(F)cc2)[C@@H](CO)O1 | -4 | -9 | 4.8
CN1C(=O)c2cc(NC(=O)c3cccc(Cl)c3)ccc2OC[C@@H]2O[C@@H](CC(=O)NC3CCCCC3)CC[C@H]21 | 2 | 1 | 0.8
O=C(c1ccc2c(c1)OCO2)N1CCCCN2[C@H](C1)[C@@H](c1ccc(-c3ccccc3)cc1)[C@@H]2CO | ? | . | .
COc1ccc2c3c(n(C)c2c1)[C@H](CO)N(C(=O)C1CCC1)CC31CN(C)C1 | 0 | -13 | 13
CCC(=O)N1C[C@@H](C)[C@@H](OC)CN(C)C(=O)c2cc(NC(=O)Nc3ccc(Cl)cc3)ccc2OC[C@@H]1C | ? | . | .
O=C(c1cccnc1)N1CC(=O)N2[C@@H](CO)[C@H](c3ccc(C#CCC4CCCC4)cc3)[C@@H]2C1 | ? | . | .
N#Cc1cccc(-c2ccc3c(c2)[C@H]2[C@H](CCN2S(=O)(=O)c2ccccc2)[C@@H](CO)N3)c1 | ? | . | .
COc1ccc(S(=O)(=O)Nc2ccc3c(c2)C(=O)N([C@@H](C)CO)C[C@@H](C)[C@@H](CN(C)C(=O)NC2CCCCC2)O3)cc1 | -3 | -6 | 3.0
COc1cccc(CNC(=O)c2cc3c(c(-c4cccc(-c5ccncc5)c4)n2)[C@@H](CCO)N([S@](=O)C(C)(C)C)C3)c1 | -1 | -1 | 0.2
COc1cccc(NC(=O)N2CC(=O)N3[C@@H](CO)[C@H](c4ccc(C#CCC5CCCC5)cc4)[C@@H]3C2)c1 | -3 | -10 | 7.2
C[C@@H]1CN([C@H](C)CO)C(=O)c2ccccc2-c2ccccc2CO[C@H]1CN(C)S(=O)(=O)c1ccc(Cl)cc1 | -4 | 1 | -5.5
C[C@H](NC(=O)C[C@@H]1CC[C@H](NC(=O)Cc2ccccn2)[C@@H](CO)O1)c1ccccc1 | ? | . | .
COc1ccc2c3c(n(C)c2c1)[C@@H](CO)N(C(C)=O)CC31CCN(Cc2ccccc2OC)CC1 | 12 | 9 | 3.2
COCC#Cc1cnc2c(c1)C(=O)N([C@@H](C)CO)C[C@H](C)[C@H](CN(C)C(=O)c1cnccn1)O2 | -3 | 1 | -4.1
COC(=O)C[C@@H]1CC[C@@H]2[C@@H](COc3ccc(NS(=O)(=O)c4ccccc4F)cc3C(=O)N2C)O1 | 2 | 1 | 1.5
CCC(=O)N(C)C[C@H]1[C@H](c2ccc(C3=CCCCC3)cc2)[C@@H](CO)N1C(C)=O | -4 | -5 | 1.0
C[C@@H]1CN([C@@H](C)CO)C(=O)c2c(c3ccccc3n2C)-c2ccccc2CO[C@H]1CN(C)S(=O)(=O)c1ccc(Cl)cc1 | ? | . | .
O=C(C[C@@H]1C=C[C@@H](NC(=O)CCN2CCCCC2)[C@H](CO)O1)Nc1nccs1 | 0 | -3 | 3.2
C[C@@H]1CN([C@H](C)CO)C(=O)c2ccccc2-c2ccccc2CO[C@H]1CN(C)C(=O)[C@H](Cc1ccccc1)N(C)C | 10 | -3 | 13
Cc1noc(C)c1NC(=O)Nc1ccc2c(c1)C(=O)N([C@H](C)CO)C[C@H](C)[C@@H](CN(C)C(=O)Cc1ccccc1)OCCCC[C@@H](C)O2 | 2 | 3 | -1.3
O=C(C[C@@H]1CC[C@@H]2[C@H](COC[C@H](O)CN2C(=O)Nc2ccc(C(F)(F)F)cc2)O1)NCC1CCCCC1 | -6 | -8 | 1.8
C[C@@H]1CCCCO[C@H](CN(C)C(=O)Cc2ccccc2)[C@@H](C)CN([C@@H](C)CO)C(=O)c2cc(NC(=O)c3ccncc3)ccc2O1 | 3 | -6 | 9.2
O=C(C[C@H]1CC[C@H]2[C@@H](COC[C@H](O)CN2C(=O)c2ccncc2)O1)NCc1ccc(-c2ccccc2)cc1 | 5 | -5 | 9.8
CO[C@@H]1CN(C)C(=O)c2ccc(NC(=O)c3cc(C)on3)cc2OC[C@@H](C)N(S(=O)(=O)c2cccc(F)c2)C[C@H]1C | ? | . | .
CCC(=O)N[C@@H]1C=C[C@H](CC(=O)OC)O[C@@H]1CO | -7 | -1 | -5.3
CCCNC(=O)Nc1ccc2c(c1)C(=O)N(C)C[C@@H](OC)[C@@H](C)CN(C)[C@@H](C)CO2 | 6 | 1 | 4.9
CO[C@@H]1CN(C)C(=O)c2ccc(NC(C)=O)cc2OC[C@@H](C)N(C(=O)c2cnccn2)C[C@@H]1C | 7 | 6 | 1.0
C[C@H]1CN([C@@H](C)CO)C(=O)CCCn2cc(nn2)CO[C@H]1CN(C)C(=O)NC1CCCCC1 | 9 | 8 | 0.6
O=C(C1CC1)N1CC[C@@H]2[C@H]1c1cc(-c3ccc(F)cc3)ccc1N[C@@H]2CO | ? | . | .
CCC(=O)N1[C@@H]2CN(C(=O)c3cccc(OC)c3)c3ccccc3[C@@H]2[C@@H]1CO | -1 | -5 | 3.9
CN(C)C(=O)c1ccc(-c2ccc([C@H]3[C@@H](C#N)N(S(C)(=O)=O)[C@H]3CO)cc2)cc1 | 0 | 2 | -1.7
CN(C)CC(=O)Nc1ccc2c(c1)[C@@H]1C[C@H](CC(=O)NCC3CC3)O[C@@H](CO)[C@@H]1O2 | -4 | -3 | -0.5

The results go on:
SMILES | DUX4 txn inh | DUX4 txn inh difference | DUX4 txn inh control
C[C@H](CO)N1C[C@H](C)[C@H](CN(C)C(=O)C2CCCCC2)OCCCC[C@H](C)Oc2ccc(N(C)C)cc2C1=O | 0 | 0 | -0.2
COc1ccc2c3c([nH]c2c1)[C@H](CO)NCC31CN(C(=O)Nc2ccc3c(c2)OCO3)C1 | -2 | -7 | 4.2
O=C(C[C@H]1CC[C@H]2[C@@H](COC[C@@H](O)CN2Cc2ccc(Oc3ccccc3)cc2)O1)N1CCOCC1 | ? | . | .
COc1ccc(S(=O)(=O)Nc2ccc3c(c2)[C@H]2C[C@@H](CC(=O)NCC4CC4)O[C@@H](CO)[C@H]2O3)cc1 | -3 | -6 | 2.3
CCCN1C[C@H](C)[C@@H](OC)CN(C)C(=O)c2ccc(NC(=O)C3CCOCC3)cc2OC[C@H]1C | -2 | -2 | -0.3
C[C@H](CO)N1C[C@H](C)[C@H](CN(C)Cc2ccc(Cl)c(Cl)c2)OCc2ccccc2-c2c(n(C)c3ccccc23)C1=O | ? | . | .
CO[C@@H]1CN(C)C(=O)c2cc(NS(C)(=O)=O)ccc2OC[C@@H](C)N(C(=O)C2CCOCC2)C[C@@H]1C | -5 | -8 | 3.6
CCN1[C@@H]2Cn3c(ccc(-c4cccc(F)c4)c3=O)[C@H]1[C@@H](C(=O)NCC1CC1)[C@@H]2CO | 2 | -1 | 2.9
CO[C@H](CN(C)C(=O)C1CCOCC1)[C@H](C)CN([C@@H](C)CO)S(=O)(=O)c1ccccc1 | 1 | 6 | -4.8
C[C@@H]1CN([C@H](C)CO)C(=O)c2ccccc2-c2ccccc2CO[C@@H]1CN(C)C(=O)CCC(F)(F)F | 7 | 3 | 4.1
CO[C@H]1CN(C)C(=O)c2ccc(NS(=O)(=O)c3ccccc3C)cc2OC[C@@H](C)NC[C@@H]1C | 7 | 3 | 4.2
COc1ccccc1C(=O)Nc1ccc2c(c1)C(=O)N(C)C[C@@H](OC)[C@@H](C)CN(C(C)=O)[C@@H](C)CO2 | -4 | 3 | -7.0
COc1ccc2c3c(n(C)c2c1)[C@H](CO)N(CC1CC1)CC31CN(C(=O)Nc2ccc(F)cc2F)C1 | -5 | -8 | 2.4
CCNC(=O)[C@@H]1[C@@H](CO)[C@@H]2Cn3c(ccc(/C=C/c4ccccc4)c3=O)[C@@H]2N1C(=O)C1CC1 | -9 | -6 | -3.3

Structures from the list above that contain a Cl atom:
SMILES | DUX4 txn inh | DUX4 txn inh difference | DUX4 txn inh control
CO[C@@H](CN(C)C(=O)c1ccccc1F)[C@@H](C)CN([C@H](C)CO)S(=O)(=O)c1ccc(Cl)cc1 | 2 | 2 | 0.6
O=S(=O)(NCC[C@@H]1CC[C@@H](NS(=O)(=O)c2cccc(Cl)c2)[C@@H](CO)O1)c1cccc(F)c1 | 6 | 4 | 2.2
O=C(NCc1ccccc1Cl)[C@@H]1[C@@H](CO)[C@@H]2Cn3c(cccc3=O)[C@@H]2N1C(=O)C1CCC1 | 4 | 3 | 1.2
O=S(=O)(c1cccc(Cl)c1)N1[C@@H]2CNC[C@H]1C2c1ccc(-c2cccnc2)cc1 (stereo partly drawn) | 26&6 | 30&-4 | -3.4&10.0
CN1C(=O)c2cc(NC(=O)c3cccc(Cl)c3)ccc2OC[C@@H]2O[C@@H](CC(=O)NC3CCCCC3)CC[C@H]21 | 2 | 1 | 0.8
CCC(=O)N1C[C@@H](C)[C@@H](OC)CN(C)C(=O)c2cc(NC(=O)Nc3ccc(Cl)cc3)ccc2OC[C@@H]1C | ? | . | .
C[C@@H]1CN([C@H](C)CO)C(=O)c2ccccc2-c2ccccc2CO[C@H]1CN(C)S(=O)(=O)c1ccc(Cl)cc1 | -4 | 1 | -5.5
C[C@@H]1CN([C@@H](C)CO)C(=O)c2c(c3ccccc3n2C)-c2ccccc2CO[C@H]1CN(C)S(=O)(=O)c1ccc(Cl)cc1 | ? | . | .
C[C@H](CO)N1C[C@H](C)[C@H](CN(C)Cc2ccc(Cl)c(Cl)c2)OCc2ccccc2-c2c(n(C)c3ccccc23)C1=O | ? | . | .
